SmPrx2 inh: Schistosoma Mansoni Peroxiredoxins (Prx2); S. mansoni Prx2 activity coupled to TGR/GSH (TGR is thioredoxin glutathione reductase), NADPH fluorescence loss, qHTS; some inactives read as strong as hits; Potency, µM; 65,000 compounds, 0.07% hits; AID 448, 2006; active means full or partial inhibition curve with a strong effect at the top dose; inconclusive means weaker partial or single-point curve; inactive means no accepted curve; note: series up to 57 µM; many of its hits are not listed in these tables
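Coupled assay in which S. mansoni TGR passes NADPH reducing equivalents via glutathione to Prx2, which reduces H2O2. Compounds were preincubated 15 min at room temperature with 25 nM TGR/50 nM Prx2 mix. Kinetic NADPH fluorescence loss (ex 365/em 450 nm) was monitored.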
LT uptake inh: qHTS Assay for Anthrax Lethal Toxin Internalization; 70,000 compounds, 0.67% hits; Potency, µM (series often up to 40 µM), for the others: at the highest dose activity change, negative = inhibition, usual class: inhibitors; Cells, anthrax lethal toxin internalization, FRET ratio (460/530); AID 912, 2007; active = well fitted falling ratio curve with the 530 nm signal flat; inconclusive = other ratio curves, or a change in one channel alone; inactive = flat curves in the ratio and both channels; the % refers to the ratio; note: % is set by controls: 0 for no effect and ±100 for the full control effect; nearly all actives have a fitted effect of over 50% in size; tested in ME-180 cells; beta-lactamase reporter
The depositor's hits bear a star; u = inconclusive; x = no result given; & = joins results of further samples; [ ] = remark or other dose. Potency is the fitted concentration of half-maximal effect.

Each structure is followed by: SmPrx2 inh	LT uptake inh
(1) CCOC(=O)CCc1c(C)c2ccc(OCC(=O)OC(C)C)cc2oc1=O
  >57	u
(2) COc1cc(C(=O)NC2=NCCS2)ccc1OCc1c(C)noc1C
  >57	3.2%
(3) COc1cccc(-n2c(SCC(=O)NC3CCCCC3)nc3n[nH]c(C)c3c2=N)c1
  x	-15.6%
(4) Cc1ccc(C(c2nnnn2Cc2cccs2)N2CCN(C(=O)c3ccco3)CC2)cc1 (stereo not given)
  >57	7.9%
(5) COC(=O)c1[nH]c2ccc(C)cc2c1NC(=O)CN1CCC(C)CC1
  >57	x
(6) COc1ccc(CNC(=O)C2CCCN(S(=O)(=O)c3cnc[nH]3)C2)cc1 (stereo not given)
  >57	-2.6%
(7) O=C(Cc1ccc(S(=O)(=O)N2CCCC2)s1)Nc1nc2c(s1)CCCC2
  >57	3.4%
(8) Nn1c(SCC(=O)Nc2ccc3c(c2)OCCO3)nnc1-c1ccccn1
  >57	3.1%
(9) S=c1[nH]nc(COc2ccc(Cl)cc2)o1
  >57	-4.2%
(10) Cc1ccc(C)n1-n1c(C)nc2sc3c(c2c1=O)CCCCC3
  >57	u
(11) COc1ccc(N2CCN(C(CNC(=O)C3CCCCC3)c3cccnc3)CC2)cc1 (stereo not given)
  >57	10.3%
(12) O=C(Nc1nc(-c2ccc3c(c2)OCO3)cs1)c1ccncc1
  >57	-29.9%
(13) O=C(CNC(=O)c1ccccc1)NC1(C(=O)NC2CCCC2)CCCCC1
  >57	-2.8%
(14) Cc1onc(-c2ccccc2)c1C(=O)Nc1cc(C(F)(F)F)ccc1N1CCOCC1
  >57	u
(15) COc1ccc(S(=O)(=O)N2CCc3ccccc32)cc1C(=O)OCc1nnc(-c2ccccc2)o1
  >57	u
(16) COc1cccc(NC(=O)Nc2cccs2)c1
  >57	u
(17) CCCc1nnc(NC(=O)CCC(=O)N2CCCCC2CC)s1 (stereo not given)
  >57	4.1%
(18) Cc1ccc(-c2nnc(SCC(=O)O)n2N)cc1
  >57	15.7%
(19) COCCn1c(COc2ccc(C)cc2)nc2ccccc21
  >57	-10.0%
(20) CCN(CC)CCNc1ccc(CO)c2sc3ccccc3c(=O)c12
  >57	u
(21) CCOC(=O)Cn1cc(-c2ccccc2)nn1
  >57	0.7%
(22) Cc1nc(N2CCOCC2)c2nc(-c3ccccc3)n(CCCN3CCOCC3)c2n1
  x	22.0%
(23) CC(=O)c1ccc(OC2C=CC(c3ccc(Cl)cc3)OC2CO)cc1 (stereo not given)
  x	2.6%[8 µM]
(24) CCOc1ccc(N(CC(=O)N2CCN(c3ccccc3)CC2)S(=O)(=O)c2c(C)noc2C)cc1
  >57	u
(25) O=C(Cn1nnc(-c2ccncc2)n1)N(C1CCCCC1)C1CCCCC1
  >57	u
(26) O=C1C(Cl)=C(N2CCOCC2)C(=O)N1c1ccccc1Cl
  x	-8.8%
(27) COCCCNC(=O)c1cc(OC)c(OC)c(OC)c1
  >57	10.6%
(28) O=C(Nc1nnc(SCc2ccc(F)cc2)s1)c1ccco1
  >57	1.7%
(29) COC(=O)COc1nsnc1N1CCOCC1
  >57	-2.1%
(30) O=C(O)c1cc(N=Cc2ccccc2O)cc(C(=O)O)c1
  >57	-13.6%[8 µM]
(31) c1csc(-c2cn3c(n2)SCC3)c1
  >57	-9.3%
(32) COc1ccccc1N1CCN(C(=O)c2ccc(CS(=O)(=O)c3ccccc3OC)o2)CC1
  >57	u
(33) COc1ccc2c(=O)c(N3C(=O)c4ccccc4C3=O)coc2c1
  >57	x
(34) Cc1ccc(CC2C(=O)N(C)C(=O)N(C)C2=O)s1
  >57	-0.5%
(35) CN(C)CCNC(=O)Cc1c(C(=O)O)n(C)c2ccccc12
  >57	3.9%
(36) COc1ccc2cc(C(c3nnnn3C3CCCCC3)N3CCCCCC3)c3nnnn3c2c1 (stereo not given)
  >57	-7.2%
(37) COc1ccccc1CNC(=O)c1ccc(NS(C)(=O)=O)cc1
  >57	0.4%
(38) COCCn1c(=O)c(C)nc2cnc(Oc3ccccc3)nc21
  >57	1.7%
(39) Cc1cc(S(=O)(=O)N2CCN(c3ncccn3)CC2)ccc1-n1cnnn1
  >57	-13.1%
(40) COc1ccccc1NC(=O)c1nnn(CC(=O)Nc2cccc(SC)c2)c1N
  >57	1.3%
(41) Cc1nc(NC(=O)CCCC(=O)Nc2nc(C)c(C)s2)sc1C
  >57	-10.0%
(42) Cc1cccc(-n2nnc(C(=O)NCc3ccccn3)c2N)c1
  >57	15.6%
(43) O=C(COc1ccc(Cl)cc1)Nc1nc(-c2cccs2)cs1
  >57	10µM*
(44) CCN1C[C@@]2(COC)[C@H]3[C@@H](OC)[C@H]4C1[C@@]3([C@H](OC)C[C@@H]2O)[C@H]1C[C@@]2(O)[C@@H](OC(=O)c3ccccc3)[C@@H]1[C@@]4(OC(C)=O)[C@H](O)[C@@H]2OC
  >57	4.6%[3.58 µM]
(45) Cc1oc(-c2ccc(F)cc2)cc1-c1nn2c(-c3ccoc3C)nnc2s1
  >57	u
(46) O=C1c2ccccc2S(=O)(=O)N1CCOc1ccc(F)cc1
  >57	u
(47) N#Cc1c(NC(=O)C(F)(F)F)sc2c3c(=O)c4ccccc4c(=O)c=3oc3ccccc3c12
  >57	2.3%[8 µM]
(48) COCC(=O)N1CCC2(CCCN(Cc3ccccc3)C2)CC1
  >57	-2.4%
(49) Cc1cccc(CCNC(=O)C2CCC(CNc3c(N4CCCC4)c(=O)c3=O)CC2)c1 (stereo not given)
  >57	u
(50) COc1ccc(COC(=O)N/N=C2/C[C@@H](O)[C@@H](O)[C@@H]3[C@@H]4C(=O)N(c5cccc(Oc6ccccc6)c5)C(=O)[C@H]4CC[C@@H]23)cc1
  x	u
(51) CCC(OC(=O)CCc1nc2ccccc2[nH]c1=O)C(=O)c1ccccc1 (stereo not given)
  >57	2.5%
(52) CC(=O)N1CCc2cc(S(=O)(=O)NC(C(=O)Nc3ccc4c(c3)OCCO4)C(C)C)ccc21 (stereo not given)
  >57	-10.6%
(53) CC(=O)Nc1ccc(NC(=O)Cn2cc3c(n2)CCC(C)C3)cc1 (stereo not given)
  >57	-2.4%
(54) COc1ccc(NC(=O)c2cnc(C)cn2)cc1-n1cnnn1
  >57	10.7%
(55) CC(C)Nc1oc(Cc2cccc3ccccc23)nc1C#N
  >57	x
(56) O=C(Nc1ccc2oc(-c3ccccc3Cl)nc2c1)c1ncn[nH]1
  >57	9.1%
(57) O=C(Nc1ccc(C2CCCCC2)cc1)C1CCCN(c2ncccn2)C1 (stereo not given)
  >57	14.8%
(58) COC(=O)c1cc(C)sc1NC(=O)CCCC(=O)O
  >57	13.5%
(59) CCOC(=O)N1CCN(C(=O)Cn2cc3c(n2)CCCC3)CC1
  >57	3.5%
(60) COc1cc(NC(=O)c2ccc(C)cc2)c(OC)cc1NC(=O)CN1CCOCC1
  >57	u

(continued)
Each structure is followed by: SmPrx2 inh	LT uptake inh
(61) Cc1cc(NC(=O)Cn2nnc3sc4c(c3c2=O)CCCC4)no1
  >57	-21.0%
(62) O=C(c1ccccc1)c1cccn1CC(=O)N1CCN(c2ccc(F)cc2)CC1
  >57	u
(63) COC(=O)N1CCC2(CC1)CCN(C(c1ccccc1)c1ccccc1)CC2
  >57	-6.8%
(64) COc1ccc(CN2CC(C(=O)NCCCN3CCN(C)CC3)CC2=O)cc1 (stereo not given)
  >57	-0.8%
(65) CCOC(=O)c1cc2c(=O)n3ccccc3nc2n(CCCOC)c1=NC(=O)C(C)(C)C
  >57	u
(66) Cc1cc(C(C)(C)C)c(O)c(C)c1CC1=NCCN1
  >25.6&>57&>57	u
(67) CCCCc1c(O)nc(SCC(=O)N2CCOCC2)n(-c2ccccc2C)c1=O
  >57	x
(68) CN(C(=O)C1CCCO1)c1nnc(-c2ccccn2)s1 (stereo not given)
  >57	6.6%
(69) CCN1C(=O)C2(/C(=C(\O)c3ccc4c(c3)OCCO4)C(=O)C(=O)N2CCCOC)c2ccccc21 (stereo not given)
  >57	-12.4%
(70) O=C(COC(=O)CCc1c[nH]c(=O)[nH]1)Nc1cccc(Cl)c1
  >57	-4.4%
(71) Cc1c(OCc2nn[nH]n2)ccc2c3c(c(=O)oc12)CCCC3
  >57	-4.5%
(72) CC1Cc2nc(SCC(=O)Nc3ccc4c(c3)OCO4)n(CCc3ccccc3)c(=O)c2S1 (stereo not given)
  >57	-1.5%
(73) O=C(c1ccccc1Oc1nnnn1-c1ccccc1)N1CCOCC1
  >57	-20.8%
(74) O=C(COC(=O)C1CCN(S(=O)(=O)c2cccs2)CC1)c1cc2ccccc2o1
  >57	-7.5%
(75) COC(=O)c1ccc(C(NC(=O)OCc2ccccc2)/C(=C/[C@@H](C)C(=O)NCc2ccc(OC)c(OC)c2)c2cccnc2)cc1 (stereo not given in full)
  x	-1.1%
(76) CCC(C)(C(=O)NC1CCCC1)N(Cc1ccco1)C(=O)c1ccccn1 (stereo not given)
  >57	0.4%
(77) Cc1onc(-c2ccccc2Cl)c1C(=O)Nc1cccc2cccnc12
  x	u
(78) CC(c1ccccc1)n1cc(C(=O)NCc2cccnc2)nn1 (stereo not given)
  >57	6.6%
(79) COc1ccc(-c2nc3ncccn3c2Nc2ccc3c(c2)OCCO3)cc1
  >57	11.2%
(80) CCN(CC)C(=O)CSc1nnc(-c2cccc(OC)c2)o1
  >57	-9.1%
(81) COC1=CC(=O)O[C@@H](/C=C/c2ccc3c(c2)OCO3)C1
  x	4.2%
(82) CC(=O)Nc1nonc1NC(=O)CSc1ccccn1
  >57	18.5%
(83) Cc1ccc(S(=O)(=O)N2CCC(C(=O)Nc3nnc(-c4ccco4)s3)CC2)cc1
  >57	-9.5%
(84) O=C(c1cc2nc(-c3ccco3)cc(C(F)(F)F)n2n1)N1CCN(c2ccccc2)CC1
  x	u
(85) Cc1cc(C)cc(N2C(=O)C3C4C=CC(C4)C3C2=O)c1 (stereo not given)
  >57	u
(86) COc1ccccc1CN1CC(C(=O)NCC2CCCO2)CC1=O (stereo not given)
  >57	8.3%
(87) O=C1NC(=O)C(c2ccccc2)(c2ccccc2)N1
  >57	u
(88) COc1ccc(C2(C(=O)NC(C)C)CCCC2)cc1OC
  >57	x
(89) O=c1c2ccccc2c(C=NCCO)c(O)n1-c1ccccc1
  >57	x
(90) Cc1nc2nc(-c3ccccc3)[nH]n2c(=O)c1Cc1ccccc1
  >57	u
(91) O=c1c(CCc2ccccc2)nc2cnc(N3CCNCC3)nc2n1Cc1cccs1
  >57	u
(92) O=C(O)COCc1nc2ccccc2[nH]1
  >57	-7.0%
(93) O=C(COc1ccccc1)N1CCN(CC2CC3C=CC2C3)CC1 (stereo not given)
  >57	-12.9%
(94) CCCC(O)(CCN(C)C)c1ccc(OC)cc1 (stereo not given)
  >57	u
(95) Cc1ccccc1CSCCNC(=O)CN(c1ccc2c(c1)OCO2)S(C)(=O)=O
  >57	-3.8%
(96) COc1cccc2cc3c(=O)n(-c4ccccc4)nc-3oc12
  >57	6.7%
(97) O[C@@H](c1cc([C@@]23C[C@H]4CC[C@@H]2C[C@H](C4)C3)nc2c(Cl)cc(Cl)cc12)[C@@H]1CCCCN1
  >57	-11.0%[8 µM]
(98) Cc1cccn2c(=O)c3cc(C(=O)NCCCN4CCOCC4)n(C)c3nc12
  >57	-3.1%
(99) COc1ccccc1NC(=O)CN(C)S(=O)(=O)c1ccc(F)cc1
  x	0.0%
(100) Cc1ccc2[nH]c(=O)c(CN(CCCN3CCOCC3)C(=O)Nc3cccc(Cl)c3)cc2c1
  >57	2.1%

4 entries drawn at random from the list so far, as already listed:
Each structure is followed by: SmPrx2 inh	LT uptake inh
(83) Cc1ccc(S(=O)(=O)N2CCC(C(=O)Nc3nnc(-c4ccco4)s3)CC2)cc1
  >57	-9.5%
(92) O=C(O)COCc1nc2ccccc2[nH]1
  >57	-7.0%
(90) Cc1nc2nc(-c3ccccc3)[nH]n2c(=O)c1Cc1ccccc1
  >57	u
(86) COc1ccccc1CN1CC(C(=O)NCC2CCCO2)CC1=O (stereo not given)
  >57	8.3%

More records follow.
Each structure is followed by: SmPrx2 inh	LT uptake inh
(101) Cn1cccc1Cc1nnc(SCC(=O)NCC2CCCO2)n1CCc1ccccc1 (stereo not given)
  >57	2.5%
(102) COc1ccc(NS(=O)(=O)c2cc(C)ccc2C)cc1
  >57	-5.0%
(103) COc1ccc(C(=O)CSc2nnc(-c3ccc(C)cc3)o2)cc1
  >57	-8.1%
(104) Cc1cc(C(=O)CSc2nncs2)c(C)n1-c1c(C)n(C)n(-c2ccccc2)c1=O
  >57	-5.1%
(105) CCn1cc(C(=O)NCC2CCCO2)c(=O)c2cc(S(=O)(=O)N(C)C)ccc21 (stereo not given)
  >57	3.6%
(106) CC(=O)OC[C@@H]1O[C@@H](O/N=C2/C[C@@H](O)[C@@H](O)[C@@H]3[C@@H]4C(=O)N(Cc5ccccc5)C(=O)[C@H]4CC[C@H]23)[C@H](OC(C)=O)[C@H](OC(C)=O)[C@@H]1OC(C)=O
  x	-14.1%[8 µM]
(107) CN(C)S(=O)(=O)c1ccc2c(c1)C(CC(=O)O)NC2=O (stereo not given)
  >57	-1.5%
(108) O=C(c1cn(-c2ccccc2)nc1-c1ccccc1)N1CCOCC1
  >57	u
(109) Cc1noc(C)c1S(=O)(=O)N1CCCC(C(=O)NCCC2=CCCCC2)C1 (stereo not given)
  >57	-2.9%

Entries from the list above containing a cyano group:
Each structure is followed by: SmPrx2 inh	LT uptake inh
(47) N#Cc1c(NC(=O)C(F)(F)F)sc2c3c(=O)c4ccccc4c(=O)c=3oc3ccccc3c12
  >57	2.3%[8 µM]
(55) CC(C)Nc1oc(Cc2cccc3ccccc23)nc1C#N
  >57	x

An excerpt; rates above refer to the full screens.
